# RecA intein inh: inhibitors of M. tuberculosis RecA intein splicing; hit rate 0.75% among 290,000; AID 2221; P9WHJ3; cell-free RecA intein splicing, fluorescence; inhibition, %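 (about 9 µM by stock and volumes)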; in the data active = inhibition above about 30%; inconclusive = no clear call, values can overlap the other calls;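 also: 0% = vehicle wells and 100% = reference inhibitor control wells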
# Target sequence (P9WHJ3 whole entry, looked up): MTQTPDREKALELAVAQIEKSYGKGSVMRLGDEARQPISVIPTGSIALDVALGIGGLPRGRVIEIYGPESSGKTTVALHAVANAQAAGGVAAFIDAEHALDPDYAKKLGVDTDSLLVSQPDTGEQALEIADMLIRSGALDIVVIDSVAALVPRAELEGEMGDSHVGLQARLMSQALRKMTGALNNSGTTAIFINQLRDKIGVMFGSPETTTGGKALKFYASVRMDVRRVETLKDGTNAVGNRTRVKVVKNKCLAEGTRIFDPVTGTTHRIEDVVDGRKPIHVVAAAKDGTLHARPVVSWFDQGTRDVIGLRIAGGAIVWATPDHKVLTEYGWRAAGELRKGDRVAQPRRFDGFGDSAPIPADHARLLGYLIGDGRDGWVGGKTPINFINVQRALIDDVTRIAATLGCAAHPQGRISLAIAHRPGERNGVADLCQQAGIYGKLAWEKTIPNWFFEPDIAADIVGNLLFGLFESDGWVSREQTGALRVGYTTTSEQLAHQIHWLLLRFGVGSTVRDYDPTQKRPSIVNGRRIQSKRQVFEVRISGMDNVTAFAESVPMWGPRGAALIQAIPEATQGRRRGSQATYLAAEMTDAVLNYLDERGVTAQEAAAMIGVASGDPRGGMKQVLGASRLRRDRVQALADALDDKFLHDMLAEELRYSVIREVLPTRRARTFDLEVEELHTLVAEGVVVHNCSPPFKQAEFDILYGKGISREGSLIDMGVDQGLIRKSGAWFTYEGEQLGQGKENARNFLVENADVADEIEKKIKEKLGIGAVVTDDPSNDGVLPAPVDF
# Arbovirus inh: antivirals against arbovirus infection; arbovirus infection cell-based antiviral screen; inhibition, % at 10 µM; hit rate 0.37% among 200,000;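 active = inhibition from about 30%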;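 also: bluetongue infection of BSR cells; cell survival read as ATP light after 72 h; 0% = infected wells without compound and 100% = uninfected wells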
# YopH inh: blocks Yersinia enterocolitica YopH tyrosine phosphatase | fluorescence Ex485/Em525 | inhibition, %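 (about 10 µM by stock and volumes)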 | AID 898 | hit rate 0.16% among 140,000;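 active = inhibition of 50% or more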;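 also: controls were vehicle for no effect and minimum signal wells for full effect; inactives centre near -20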
# Mtb growth: M. tuberculosis H37Rv growth inhibitors, H37Rv strain (AID 1626). hit rate 0.95% among 220,000. M. tuberculosis H37Rv growth inhibition; higher % means a stronger effect. inhibition, % at 10 µM; hits with a dose series show IC50 in µM;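 active = confirmed in a dose series; inconclusive = inhibition above 80% but not taken into the dose series; inactive = below 80% or under 30% at every dose of the series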;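 also: bacteria incubated seven days before Alamar blue readout; 0% = bacteria only wells and 100% = bacteria with antibiotic wells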
# Mtb bLac sens: beta-lactam sensitization of Mtb H37Rv; inhibition, % at 25 µM; M. tuberculosis H37Rv growth with meropenem, percent inhibition; hits of this screen are not shown here; hit rate 0.27% among 330,000;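 active = about 74% or more and at least 40 points above the plate without the antibiotic, then above 30% in a dose series; inconclusive = first-round hits that could not be retested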;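 also: growth measured after seven days incubation then overnight dye step; 0% = bacteria only wells and 100% = bacteria with antibiotic; twin plates without the antibiotic show which effects depend on it; some results filed as inactive read as strong as hits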
# Arbovirus inh repeat: also measured in Arbovirus inh; calls as there; inhibition, %; measured here: 10K subset replicate screen; many hits read low in the repeat;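 first of two repeat runs on a subset; 0% = infected and 100% = uninfected wells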
# * hit, by the source's call; ? = inconclusive; . = no result given. A portion of the library. The share of hits here may be higher or lower than overall.
SMILES,RecA intein inh,Arbovirus inh,YopH inh,Mtb growth,Mtb bLac sens,others
c1ccc(Cn2nnc3ccccc32)cc1,0.4,.,.,.,6,
COc1ccc(-c2nc(NC(=O)c3cc(C(C)(C)C)nn3C)sc2C)cc1,7.1,-16,-33,4.4µM*,99,
CC(=O)CSc1ncnc2scc(-c3ccc(F)cc3)c12,-4.9,4,.,0%,3,
C=CCOC(=O)CC(NC(=O)c1ccccc1)c1ccccc1 (stereo not given),13,5,-2,-3%,-3,
Cc1sc(NC(=O)c2ccco2)nc1-c1ccccc1,1.8,-24,-44,-3%,35,
Cc1noc(C)c1C(=O)NC1CCCc2ccccc21 (stereo not given),-3.1,-4,-26,-15%,-6,
CCOc1ccccc1NC(=O)COC(=O)C(CC)c1ccccc1 (stereo not given),6.3,-2,.,4%,-10,
Cc1cccc(NC(=S)NCCc2ccc(F)cc2)c1C,6.1,4,.,6%,4,
O=S(=O)(c1cccc(-c2nc3n(n2)Cc2ccccc2-3)c1)N1CCCC1,-1.6,-3,-31,-3%,2,
Cc1nc(N2CCC(C)CC2)c2oc3ccccc3c2n1,0.1,-7,0,10%,93,
CCN1C(=O)C2(C(C#N)=C(N)Oc3n[nH]c(COC)c32)c2ccccc21 (stereo not given),-0.5,-7,2,-1%,-2,
Cc1ccc(NC(=O)N2CCC(C(=O)NCc3ccccc3)CC2)cc1,-0.4,-1,-52,-5%,5,
CN(C)c1ncc(CN2CCC(CO)(CCCc3ccccc3)CC2)s1,0.3,.,.,-5%,-7,
CC(=O)c1cccc(N(C(=O)CNC(=O)c2cccs2)C(C(=O)NCC2CCCO2)c2ccccc2)c1 (stereo not given),-1.4,.,.,.,-11,
COC(=O)c1c(C(=O)OC)c(-c2ccc(Cl)cc2)n2c1CS(=O)(=O)C2,-4.0,-2,.,3%,3,
CC(C)[C@H](NC(=O)C1CCN(S(=O)(=O)c2ccccc2)CC1)C(=O)NCc1ccccn1,1.4,.,.,.,6,
O=[N+]([O-])/C(Cl)=C1\NCCN1Cc1ccc(Cl)nc1,-3.4,-5,.,-8%,-13,
Cn1c(=O)oc2cc(S(=O)(=O)NCc3ccc(F)cc3)ccc21,-1.0,.,.,.,-8,
C=CCn1c(=O)c2ccccc2n2c(SCC(=O)NCc3cccs3)nnc12,3.0,1,-14,-12%,-13,
Cc1cc(C(=O)NCC23CC4CC(CC(C4)C2)C3)c(C)o1,6.2,-9,.,-10%,5,

# Next part; it opens with the three that closed the last part.
SMILES,RecA intein inh,Arbovirus inh,YopH inh,Mtb growth,Mtb bLac sens,others
Cn1c(=O)oc2cc(S(=O)(=O)NCc3ccc(F)cc3)ccc21,-1.0,.,.,.,-8,
C=CCn1c(=O)c2ccccc2n2c(SCC(=O)NCc3cccs3)nnc12,3.0,1,-14,-12%,-13,
Cc1cc(C(=O)NCC23CC4CC(CC(C4)C2)C3)c(C)o1,6.2,-9,.,-10%,5,
O=C(CCN1CCCC1)Nc1ccccc1,.,11,-9,-4%,4,
O=C(COc1cccc2ccccc12)NNC(=O)Nc1ccccc1,-0.3,-5,-4,9%,11,
CC1(C)CC[C@@]23CC[C@]4(C)[C@@](OC2=O)(C3C1)[C@H]1O[C@H]1C1[C@@]2(C)CC[C@H](O)C(C)(C)C2CC[C@]14C (stereo not given in full),-0.9,.,.,-2%,0,
COc1ccccc1-c1cn(C(C)(C)C)nc1C,-1.7,1,.,7%,11,
Cc1c(CCC(=O)O)c(=O)oc2c(C)c3occ(-c4ccc(Br)cc4)c3cc12,1.2,.,.,.,63,
CCCCC(=O)NCCNc1nc2c(c(=O)n(C)c(=O)n2C)n1Cc1ccc(F)cc1,-8.0,5,-36,-7%,-6,
Cc1cc(NC(=O)CSc2ccccn2)cc(NC(=O)CSc2ccccn2)c1,-5.1,.,.,.,-1,
COC(=O)c1ccc(OCC(=O)c2ccc(C)c(C)c2)cc1,-0.1,23,-35,10%,18,
CCOC(=O)c1oc2ccccc2c1NC(=O)c1cc(OC)cc(OC)c1,0.4,-6,-43,2%,?,
CC(C)(C)c1ccc(OCC(=O)NNC(=O)Cc2cccs2)cc1,-1.3,0,-11,.,5,
CCc1c(C(=O)NNC(=S)NCC2CCCO2)csc1C (stereo not given),0.4,7,-42,1%,-2,
CCCCNc1c(NC(C)=O)c(=O)oc2ccccc12,.,-8,-18,-2%,4,
Cc1ccc(CNC(=O)C23CN(Cc4ccccc4)CC2C(c2ccc([N+](=O)[O-])cc2)=NO3)cc1 (stereo not given),5.1,0,16,7%,2,
Clc1ccc(OCc2nnc(SCc3nnc(-c4ccccc4)o3)o2)c(Cl)c1,3.8,-13,-13,10%,6,
CCCCC(CC)CNCc1cccn1CCN1CCOCC1 (stereo not given),0.6,.,.,.,-2,
Cc1ccc(S(=O)(=O)N2CCN(C(=O)CSc3nnc(C)s3)C2)cc1,0.9,4,-28,-8%,4,Arbovirus inh repeat=0
COC(=O)c1ccccc1NC(=O)C1CCN(C(=O)c2cc(OC)c(OC)c(OC)c2)CC1,0.9,124*,-11,-9%,-9,
CCOC(=O)c1cccc(OS(=O)(=O)Cc2ccccc2)c1,2.9,.,.,.,-3,
CCOC(=O)c1c(NC(=O)CSc2nccn2C)sc(C(=O)NC)c1C,-1.0,.,.,.,-3,
Cn1c(=O)n(C)c2cc([N+](=O)[O-])c(N3CCN(C(=O)c4ccccc4)CC3)cc21,-0.4,3,-53,-12%,-4,
O=C(c1cccc(F)c1)N1CCN(CC2CC3C=CC2C3)CC1 (stereo not given),4.8,1,-20,-14%,-2,
Cc1ccccc1NC(=O)Nc1c(C)n(C)n(-c2ccccc2)c1=O,0.1,.,.,.,-10,
CCOc1ccc(/C(CCC(=O)O)=N/NC(=S)NCCc2ccccc2)cc1,1.5,25,.,3%,5,
Cc1[nH]c2ccc(CNS(=O)(=O)c3ccc(S(=O)(=O)N4CCOCC4)cc3)cc2c1C,-2.8,4,-4,19%,4,
O=C(Nc1ccc2c(c1)OCCO2)C1CCN(S(=O)(=O)c2cccc3nsnc23)CC1,4.0,3,-25,3%,2,
O=C(CN1CCN(Cc2ccccc2F)C1=O)NCC1CCCO1 (stereo not given),1.8,.,.,-1%,-9,
O=C(Cc1csc(-c2ccccc2)n1)NCc1ccco1,0.5,-9,.,-2%,-2,
COC(=O)c1cc2oc(C)cc2n1CC(=O)Nc1ccc(C)c(C)c1,-1.1,6,-12,4%,-1,
c1ccc2nc3c(cc2c1)CCCCCC3,-54,-6,-4,-9%,17,
CC(C)NC(=O)C(=O)NCCc1ccc(Cl)cc1,0.1,5,5,-1%,-3,
O=c1c2ccc([N+](=O)[O-])cc2ncn1Cc1ccccc1C(F)(F)F,-3.2,-2,.,7%,-8,
CN1/C(=C\C(=O)C[n+]2cccc(Br)c2)C(C)(C)c2ccccc21,1.3,22,.,-6%,-5,
CCc1c(C(=O)NN2C(=O)C3CCCCC3C2=O)csc1C (stereo not given),0.0,6,-16,-2%,-6,
CCc1cc2c(N3CCN(C(=O)c4ccco4)CC3)ncnc2s1,1.5,7,.,-3%,-8,
CCN(CC)CCCn1c(C)cc2c(c1=O)C(c1cc(OC)c(OC)cc1OC)C(C#N)=C(N)O2 (stereo not given),.,-7,-54,-8%,-6,
COc1cc(/C=C/C2=NNC(=O)CC2)cc(OC)c1OC,4.7,.,.,.,-6,
O=C(CSC(=S)N1CCSCC1)c1ccccc1,-0.1,16,.,2%,.,
NC(=O)N/N=C/c1cn(-c2ccccc2)nc1-c1ccccc1,4.4,-13,.,-5%,14,
C#CNC(=O)C1(CC=C)CCNCC1,-0.2,.,.,.,-6,
CC(C)(C)N(NC(=O)OCc1ccccc1)C(=O)c1ccccc1,-0.1,1,-15,2%,0,

# An excerpt from above in order of heavy-atom count, high to low.
SMILES,RecA intein inh,Arbovirus inh,YopH inh,Mtb growth,Mtb bLac sens,others
CCCCC(=O)NCCNc1nc2c(c(=O)n(C)c(=O)n2C)n1Cc1ccc(F)cc1,-8.0,5,-36,-7%,-6,
CN(C)c1ncc(CN2CCC(CO)(CCCc3ccccc3)CC2)s1,0.3,.,.,-5%,-7,
CCCCNc1c(NC(C)=O)c(=O)oc2ccccc12,.,-8,-18,-2%,4,

# Five entries picked at random from the list so far:
SMILES,RecA intein inh,Arbovirus inh,YopH inh,Mtb growth,Mtb bLac sens,others
CCOc1ccc(/C(CCC(=O)O)=N/NC(=S)NCCc2ccccc2)cc1,1.5,25,.,3%,5,
CCN(CC)CCCn1c(C)cc2c(c1=O)C(c1cc(OC)c(OC)cc1OC)C(C#N)=C(N)O2 (stereo not given),.,-7,-54,-8%,-6,
O=C(c1cccc(F)c1)N1CCN(CC2CC3C=CC2C3)CC1 (stereo not given),4.8,1,-20,-14%,-2,
Cc1[nH]c2ccc(CNS(=O)(=O)c3ccc(S(=O)(=O)N4CCOCC4)cc3)cc2c1C,-2.8,4,-4,19%,4,
c1ccc2nc3c(cc2c1)CCCCCC3,-54,-6,-4,-9%,17,

# (listing goes on)
SMILES,RecA intein inh,Arbovirus inh,YopH inh,Mtb growth,Mtb bLac sens,others
Cc1ccccc1C(=O)Nc1ccccc1NC(=O)c1ccccc1Br,11,.,.,.,0,
COc1cc(NC(=S)N2CCN(C(=O)c3ccco3)CC2)c(OC)cc1Cl,0.8,-8,-12,1%,11,
COCCCn1c(C(=O)Nc2ccc3c(c2)OCO3)cc2c(=O)n3ccccc3nc21,-53,.,.,.,1,
CCOC(=O)COn1c(=O)c(-c2cccs2)[n+]([O-])c2ccccc21,-32,4,4,-6%,-8,
O=C(NCCc1cnc[nH]1)c1ccc(-c2ccccc2)cc1,0.8,.,.,.,-2,
CCc1nc2sc3c(c2c(=O)n1N)CCC3,1.6,0,-27,1%,-15,
O=C(Cc1c[nH]c2ccccc12)Nc1nc2ccccc2[nH]1,3.3,5,0,2%,17,
Cc1ccccc1C(=O)NCCCc1ccccc1,0.5,-6,-25,6%,-1,
N#Cc1sc2nc3c(c(-c4ccco4)c2c1N)CCCC3,-4.9,12,-6,.,-5,
O=c1c(C(c2nnnn2C2CCCCC2)N2CCCCC2)coc2ccc(Cl)cc12 (stereo not given),4.6,7,-43,3%,-3,
NC(=O)C1(C(N)=O)OC1c1ccc(Cl)c(Cl)c1 (stereo not given),-5.1,.,.,4%,0,
C[C@H](NC(=O)NC1CCCc2ccccc21)C(=O)O (stereo not given in full),3.5,3,-119,1%,3,
COc1cccc(N2CCC(N3CCN(C)C(CCO)C3)CC2)c1 (stereo not given),0.6,.,.,.,5,
COc1ccc(C(=O)N(CC2CCCO2)C(C(=O)NCCC(C)C)c2ccc(C)cc2)cc1OC (stereo not given),0.6,-5,-7,5%,-1,
COc1ccc(N(C)C(=O)c2sc(Cl)nc2C)cc1,-0.8,.,.,.,-4,
CC(C)(C)NC(=O)C(c1ccc(O)cc1)N(Cc1ccccc1)C(=O)CCC(=O)Nc1nccs1 (stereo not given),-1.0,.,.,.,0,
CC(C)(C)c1cn(-c2ccc(F)cc2)c(=S)[nH]1,-3.3,-1,-19,1%,0,
O=C(O)c1cccc(-n2cccc2/C=C2/NC(=O)N(c3cccc(Cl)c3)C2=O)c1,0.9,.,.,4%,8,
CCCn1c(NCc2cc(C)ccc2O)nc2ccccc21,7.5,36*,-7,4%,9,Arbovirus inh repeat=19*
CC(C)NC(=O)c1ccc(-n2nc(C(F)(F)F)c3c2CCCC3)cc1,-3.2,2,-12,0%,7,
Cc1cccc(/C=C\c2nc3ccccc3c(=O)[nH]2)c1,0.1,-11,-12,0%,1,
O=C(CSCc1c(F)cccc1Cl)NCc1cccnc1,3.1,6,-48,7%,4,
CCSc1nnc(N2C(=O)C(O)=C(C(=O)c3ccco3)C2c2cccc(OC)c2)s1 (stereo not given),-1.3,.,.,.,0,
O=C(O)CCc1ccc(-c2ccccc2)n1NC(=O)c1sc2ccccc2c1Cl,7.4,10,-24,4%,-2,
C=CCN1C(=O)C2C(C(=O)NC3CCCC3)C3(C)C=CC2(O3)C1C(=O)NC1CCCC1 (stereo not given),1.6,.,.,.,3,
CSC(=O)NC(=O)NC(=O)c1ccc([N+](=O)[O-])cc1,-0.7,.,.,-6%,-4,
O=C(Oc1cc(Cl)ccc1Cl)c1ccc(N2CCOCC2)c([N+](=O)[O-])c1,6.9,-5,-12,?,34,
COc1ccc2[nH]c3ccccc3c2c1,-0.7,-1,-6,.,2,
COc1ccc(N2CCN(C(=O)CCNS(=O)(=O)c3ccc(Br)s3)CC2)cc1,0.0,6,-3,1%,-1,
O=C(NCc1ccccc1)C(=O)Nc1cccc(C(=O)O)c1,1.3,.,.,-2%,4,
CC1(C)C(=O)OC(c2cccn2-c2cccc([N+](=O)[O-])c2)C2(CCCCC2)C1=O (stereo not given),7.6,2,-23,-5%,0,
CC(C)c1nc2c(c(=O)c3ccccc3n2C)c(=O)n1CCc1ccccc1,12,.,.,10%,4,
Cc1ccc2nc(SCC(=O)Nc3ncccn3)[nH]c2c1,-1.0,.,.,-7%,-17,
CCCN(CCC)CCNC(=O)c1cc2c(=O)n(CC)c3ccccc3c2s1,-4.5,.,.,9%,5,
